# HCMV UL50-53 inh – disrupts HCMV UL50-UL53 complex binding | AID 1918969 | HTRF UL50-UL53 interaction, normalized percent inhibition | 190,000 compounds, 0.15% hits | inhibition, % (no concentration beside the values);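 active = both replicates at 50% or more, plus weaker picks with an unusually low signal ratio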;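 also: stock transfer was 100 nL into about 20 µL; 0% = negative control wells and 100% = wells with untagged competitor protein; inactives centre near -12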
# Sa growth inh – S. aureus growth inhibition | AID 720641 | 170,000 compounds, 0.53% hits | S. aureus RN4220 growth, OD600, 20 h, 42 °C; stronger effect = lower value | relative growth, % (concentration not given with the values);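 active = growth at 42 °C up to 50% and 20 or more points under that at 30 °C, or under 10% at both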;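 also: 300 nL library stock went into each well; scaled to the means of positive and negative controls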
# GIV-Gai inh – GIV-Galpha-i interaction inhibition; P08753; Galpha-i3/FITC-GIV peptide fluorescence polarization, 90 min; stronger effect = lower value; scaled: aluminum fluoride 0%, vehicle 100%; percent of control (FP), % (concentration not given with the values); 210,000 compounds, 0.42% hits; AID 1224905;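 active = replicate mean at 85% of control or lower, very high polarization wells dropped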;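 also: wells of about 15 µL received 100 nL stock; the first replicate is given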
# Target sequence (P08753 whole entry, looked up): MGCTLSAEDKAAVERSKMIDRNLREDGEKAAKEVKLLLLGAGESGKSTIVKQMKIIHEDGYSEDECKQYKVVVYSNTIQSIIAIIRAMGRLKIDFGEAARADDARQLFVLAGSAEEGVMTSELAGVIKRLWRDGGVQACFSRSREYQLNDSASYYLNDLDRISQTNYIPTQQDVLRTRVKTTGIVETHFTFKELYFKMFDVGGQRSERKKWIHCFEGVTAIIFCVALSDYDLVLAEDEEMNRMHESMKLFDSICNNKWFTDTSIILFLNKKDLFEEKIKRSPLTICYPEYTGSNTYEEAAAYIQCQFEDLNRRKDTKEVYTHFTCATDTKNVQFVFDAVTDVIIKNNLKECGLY
# Sa growth inh second temp – also measured in Sa growth inh; calls as there; relative growth, %; measured here: growth at 30 °C;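 optical density after 20 h as mean of two plates; 100% = untreated growth and lower means inhibition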
# * = called active by the depositor; . = not tested or not shown; & = joins results of further samples.
SMILES,HCMV UL50-53 inh,Sa growth inh,Sa growth inh second temp,GIV-Gai inh
O=C(CNCCCN1CCOCC1)Nc1cccc(C(F)(F)F)c1,29,113,112,.
CC(NC(=O)c1cccs1)C1CC2CCC1C2 (stereo unspecified),-4,106,87,.
Cc1nn2c(-c3cccc(NC(=O)CN4CCOCC4)c3)nnc2c2ccccc12,-2,86,89,108
CCNc1c(NC(=O)CC23CC4CC(CC(C4)C2)C3)c(=O)oc2ccccc12,.,110,98,101
Cc1nc(C(F)(F)F)ccc1C(=O)Sc1nnc(-c2ccc(C(F)(F)F)nc2C)o1,17,83,75,102
O=C1CCCC2=C1C(c1ccc(Br)cc1)C1=C(N2)c2ccccc2C1=O (stereo unspecified),-43,90,74,98
O=C(Nc1ccc(Br)c(C(F)(F)F)c1)c1cccs1,-24,95,74,101
Cc1c2cnn(CC(=O)NCCc3ccccc3)c(=O)c2c(C)n1Cc1ccccc1Cl,-21,103,86,104
O=C1CCCC2=C1C(c1ccc(Cl)cc1Cl)C1=C(CCCC1=O)O2,-5,.,.,103
N#Cc1cccc(CS(=O)(=O)c2ccccn2)c1,-15,101,83,99
NC(=O)C1CCN(c2nc3c(S(=O)(=O)c4ccccc4)nnn3c3ccsc23)CC1,0,.,.,104
Cc1ccc(OCC(=O)Nc2cccc3ccc(C)nc23)c(C)c1,-4,99,95,108
CCc1ccc(CNC(=O)c2cnc(N3CCCC3)nc2)cc1,-24,115,99,106
Cc1ccccc1C1=CCN(c2ncc(NC(=O)c3ccc(Cl)cc3)cc2C(=O)O)CC1,.,117,86,101
CCc1cc2c(cc3n2CC(C)(C(=O)NC2CCCCC2)N(CCN2CCCC2)C3=O)s1 (stereo unspecified),-16,.,.,94
COc1ccc(C)cc1NS(=O)(=O)c1ccc(-c2cnc(C3CC3)o2)cc1,.,99,91,97
OC1C=CSc2nc3ccccc3n21 (stereo unspecified),5,94,85,93
COc1nnnn1-c1ccccc1,-25,111,82,96
COc1cc(C2CC(=O)Nc3c2c(=O)nc2c(C)cccn32)cc(OC)c1OC (stereo unspecified),-13,92,87,106
CCCCOC(=O)c1ccc(NC(=O)C2(c3cccs3)CCOCC2)cc1,.,141,89,93
O=C(/C=C/c1ccccc1)NC(=S)N1CCCCC1,-27,94,84,103
N#CC1(c2ccccc2)CCc2c(sc3ncnc(Cl)c23)C1 (stereo unspecified),-6,101,93,99
C=CCNC(=O)COc1ccccc1,-11,102,81,105
CCOc1ccccc1NC(=O)c1c(NC(=O)c2cccc(C)c2)sc2c1CCC2,-48,95,90,105
O=C(O)CSc1nc2ccc(NC(=O)COc3ccc(Cl)cc3)cc2s1,-24,103,68,96
CCOc1ccc(C(=O)Nc2c(C(=O)Nc3ccccc3F)oc3ccccc23)cc1OCC,6,96,93,101
CC(C)Oc1ccc(-c2noc(CN3C(=O)COc4cc(C(C)(C)C)ccc43)n2)cc1,-22,.,.,102
O=C(Nc1nnc(C2CCCCC2)s1)C1CC(=O)N(c2ccccc2)C1 (stereo unspecified),-12,92,74,102
CN(C)c1ccc2c3c(ccc(N(C)C)c13)[C@](O)(C(F)(F)F)O[C@]2(O)C(F)(F)F,.,86,91,102
CCc1ccccc1Nc1nc2cc(Cl)c(Cl)cc2nc1-n1nc(C)cc1C,-6,104,91,108
O=C(O)/C=C/C(=O)N1CCN(c2ccc(C(F)(F)F)cn2)CC1,-28,95,88,106
NC(=O)Cn1c(CN2CCC(Cc3ccccc3)CC2)nc2ccccc2c1=O,-10,104,95,.
Cc1cc(C)cc(Nc2ncnc3onc(-c4ccc(F)cc4)c23)c1,.,78,89,102
O=C(OCC(=O)N1CCN(c2ccccc2)CC1)c1cccc(F)c1,-23,95,91,.
O=C(Nc1cc(Oc2cccnc2)cc([N+](=O)[O-])c1)c1cc2nc(-c3cccs3)cc(C(F)(F)F)n2n1,-23,.,.,94
CC(O)(CC(=O)O)C12CC3CC(CC(C3)C1)C2 (stereo unspecified),9,106,72,99
CCOC(=O)c1oc2ccccc2c1COC(=O)c1cccc(C#N)c1,-15,89,97,.
O=C(CCS(=O)(=O)c1ccc2c(c1)NC(=O)CS2)NCc1ccccc1Cl,-16,.,.,111
Cc1ccc2cc(C#N)c(SCC(=O)N3CCCC3)nc2c1,-10,102,90,96
COc1ccc(NC(=O)c2ccc3c(SCC(=O)O)c4c(nc3c2)CCCC4)cc1OC,-4,89,94,104
Cc1cc[n+](CC(=O)N2CCCCC2)cc1,-7,96,106,95
CC(C)Cc1nc(CNC(=O)C2CCCCC2)no1,6,.,.,98
Cc1ccc(NC(=O)/C(C#N)=C/c2ccc(-c3ccc(Cl)c(C(=O)O)c3)o2)cc1C,-9,110,95,107
O=c1[nH]nc(SCCS(=O)(=O)c2ccc(F)cc2)n1Cc1ccco1,17,94,96,97
Cc1cc(N2CCCC2)n2nc(Cc3ccc(Cl)cc3)nc2n1,3,.,.,101
CC1CC(C)CN(S(=O)(=O)Cc2ccccc2)C1 (stereo unspecified),-3,105,81,.
CCc1ccc(N2C(=O)NC(=O)/C(=C\c3ccc(OCC(=O)O)c(Br)c3)C2=O)cc1,-29,.,.,89
COc1ccc(NC(=O)c2oc3ccccc3c2NC(=O)c2cc(=O)c3cc(Cl)ccc3o2)cc1,-6,109,88,105
CC(C)Cc1ccc(S(=O)(=O)N2c3ccccc3CC2C)cc1 (stereo unspecified),.,101,97,110
CCOc1ccc(C(=O)C(C)Sc2nc(-c3ccco3)c(C#N)c(=O)[nH]2)cc1 (stereo unspecified),-37,81,63,.

# (continued)
SMILES,HCMV UL50-53 inh,Sa growth inh,Sa growth inh second temp,GIV-Gai inh
Cc1ccc(-c2nnc(SCC#N)nc2-c2ccc(C)cc2)cc1,-24,92,65,.
Cc1ccc(-c2csc(Nc3ccccn3)n2)cc1,-26,83,78,.
CCc1ccccc1NC(=O)Cn1c(=O)ccc2cc(S(=O)(=O)N3CCCC3)ccc21,.,114,82,102
COc1ccccc1NC(=O)COC(=O)C1CC1,4,113,99,.
CCc1c(C)c2cc3c(c(C)c2oc1=O)OCN(CCc1ccccc1F)C3,14,96,83,105
CC1CN(Cc2nc3c(Br)cc(Br)cc3c(=O)[nH]2)CC(C)O1 (stereo unspecified),-7,95,90,.
COc1ccc(CCNC(=O)c2ccc3c(c2)N(Cc2ccccc2Cl)C(=O)c2ccccc2S3)cc1OC,.,139,100,108
COc1ccc(-n2nnnc2-c2ccccc2)cc1,1,100,118,96
Cc1cc(C)n(CCCNC(=O)c2ccccc2CSc2ncn[nH]2)n1,-16,81,85,.
Cn1cccc1C(=O)OCc1cc(=O)n2cc(Br)ccc2n1,-25,99,92,.

# Two records drawn at random from those above, as already listed:
SMILES,HCMV UL50-53 inh,Sa growth inh,Sa growth inh second temp,GIV-Gai inh
COc1ccc(-n2nnnc2-c2ccccc2)cc1,1,100,118,96
CCc1c(C)c2cc3c(c(C)c2oc1=O)OCN(CCc1ccccc1F)C3,14,96,83,105

# Next section
SMILES,HCMV UL50-53 inh,Sa growth inh,Sa growth inh second temp,GIV-Gai inh
CCOc1ccccc1NC(=O)C1CCN(S(=O)(=O)Cc2ccccc2)CC1,-22,108,89,104
Cc1nnc(Sc2cc(C(=O)NCCCN3CC(C)CC(C)C3)c3ccccc3n2)s1 (stereo unspecified),.,89,84,106
CC1(C)ONC(=O)N(c2ccccc2)C1=O,-12,89,94,112
CN(C(=S)NCc1ccccc1)c1ccc(O)cc1,-22,97,94,.
O=c1cc(CSc2nnc(CN3CCCCC3)n2Cc2ccccc2)nc2sc3ccccc3n12,-38,72,62,.
N#Cc1c(SCC(=O)c2ccc3c(c2)OCO3)sc2c(=O)[nH]c(=O)[nH]c12,.,71,80,109
CC1(C)c2ccccc2N2CC(=O)NC21/C=C/c1ccc(N2CCOCC2)cc1 (stereo unspecified),-65,89,87,102
Cc1cccc(-c2nc3c4ccccc4nc(N4CCN(c5cc(C)ccc5C)CC4)n3n2)c1,18,91,88,108
CC(C)n1nccc1NC(=O)COC(=O)c1ccc(NC(N)=O)cc1,-4,99,98,.
O=C1c2ccccc2C(=O)N1CC(=O)n1nnc2ccccc21,-5,83,92,.
Cc1ccc(NC(=S)NN(C)C)cc1C,-26,92,82,101
CCOc1ccc(NC(=O)c2c(NCc3sccc3C)sc3c2CCCCC3)cc1,.,87,76,131
C=Cc1ccc(Cn2nc3n(C)c(=O)c4ccc(C(=O)NC5CCCCC5)cc4n3c2=O)cc1,-31,.,.,105
O=C(Nc1ccc(N2CCCCC2)cc1)c1cccs1,-4,88,66,106
O=C(OCC(=O)N1c2ccccc2Sc2ccccc21)c1ccco1,-9,92,84,.
CCCc1ccc(S(=O)(=O)N2CCC(c3nnnn3-c3ccc(OC)cc3)CC2)cc1,-20&1,92,88,99&113
Cc1nn(CC(=O)NC2C3CC4CC(C3)CC2C4)c(=O)c(C#N)c1C (stereo unspecified),-78,92,87,.
COC(=O)CCC(=O)Nc1ccc2oc3c(c2c1)CCCC3,6,97,85,107
Cc1nnc(SC2CCN(S(=O)(=O)c3ccc4c(c3)OCCO4)CC2)s1,-8,96,91,100
CCOC(=O)C1CCCN(S(=O)(=O)c2cc3c4c(c2)CC(=O)N4CCC3)C1 (stereo unspecified),.,126,86,92
COc1ccc(NC(=S)c2nc(N3CCCCC3)sc2N)cc1,-7,100,73,.
N#CCn1c(=O)n(C2CCCCC2)c(=O)c2ccccc21,13,94,95,105
CCCC12CN3CC(C)(CN(C1)C31CCN(Cc3ccccc3)CC1)C2=O,-24,85,86,100
O=C(COCc1cc(-c2ccc(F)cc2)on1)NCCN1CCCC1,-28,102,82,106
O=C(NCCc1c[nH]c2ccccc12)c1ccc(Cl)c(S(=O)(=O)N2CCCC2)c1,7,111,98,.
COc1ccc(CCNC2CC(=O)N(Cc3ccccc3)C2=O)cc1OC (stereo unspecified),16,99,108,98
COc1ccc(-c2n[nH]c3c2cnc2ccc(F)cc23)cc1,.,100,97,100
O=C1Nc2ccccc2OC1CC(=O)N1CCN(c2ccccc2)CC1 (stereo unspecified),.,88,76,100
COc1ccc(CCN2C(=O)CC(NNc3ccccc3)C2=O)cc1OC (stereo unspecified),-4,113,103,104
O=C1c2ccccc2C(=O)C1(Cc1ccc(Cl)cc1)c1ccc(Cl)cc1,.,80,58,103
Fc1ccc(Cn2c(-c3cccc(Br)c3)nc3ccccc32)cc1,.,97,97,99
CCc1ccc(NC(=O)Cn2c(=O)c3cc(Cl)ccc3n3nncc23)cc1,0,113,92,107
CN(C)c1ccc(-n2c(=O)c3cc4c(=O)n(-c5ccc(N(C)C)cc5)c(=O)c4cc3c2=O)cc1,6,112,94,.
CCOC(=O)c1c(NC(=O)c2ccc(S(=O)(=O)N3CCC(C)CC3)cc2)sc2c1CCN(C(C)C)C2,.,124,80,123
COc1cc(C2C(C(=O)OC(C)C)=C(C)N=C3SCCC(=O)N32)ccc1OCc1ccccc1 (stereo unspecified),-15,76,75,104
Cc1cc(-c2csc(NC=C(C#N)C#N)n2)c(C)n1CCC(C)C,-47,84,77,.
COC(=O)Oc1ccc2c(=O)c(Oc3cccc(C)c3)coc2c1,-4,115,86,96
O=C(O)c1cc(NC(=O)c2cccc(N3C(=O)c4cccc5c([N+](=O)[O-])ccc(c45)C3=O)c2)cc(C(=O)O)c1,-20,.,.,85*
CC(C)Cc1ccc(/C=C/C(=O)N2CCN(C/C=C/c3ccccc3)CC2)cc1,10,115,86,.
COc1ccccc1-n1nnc(C(=O)Nc2ccc(S(N)(=O)=O)cc2)c1C,-14,.,.,98
O=c1c2c(nc3cc(-c4cccc(Cl)c4)[nH]n13)CCCC2,5,101,102,101
O=C(NC1CS(=O)(=O)CC1NCc1ccco1)c1ccccc1 (stereo unspecified),-9,94,83,.
CC1CCN(C(=O)C2COc3ccccc3C2)CC1 (stereo unspecified),.,90,92,102
CCCSc1nnc(NC(=O)C(CC)CC)s1,-15,83,73,101
Cc1nnc(N(C)C(=O)CNC(=O)c2ccccc2)s1,9,110,76,101
O=C(O)c1cccc(COc2cccc(Cl)c2)c1,-8,144,99,103

# By substructure: the compounds so far containing a thiophene ring, fused or not.
SMILES,HCMV UL50-53 inh,Sa growth inh,Sa growth inh second temp,GIV-Gai inh
CC(NC(=O)c1cccs1)C1CC2CCC1C2 (stereo unspecified),-4,106,87,.
O=C(Nc1ccc(Br)c(C(F)(F)F)c1)c1cccs1,-24,95,74,101
NC(=O)C1CCN(c2nc3c(S(=O)(=O)c4ccccc4)nnn3c3ccsc23)CC1,0,.,.,104
CCc1cc2c(cc3n2CC(C)(C(=O)NC2CCCCC2)N(CCN2CCCC2)C3=O)s1 (stereo unspecified),-16,.,.,94
CCCCOC(=O)c1ccc(NC(=O)C2(c3cccs3)CCOCC2)cc1,.,141,89,93
N#CC1(c2ccccc2)CCc2c(sc3ncnc(Cl)c23)C1 (stereo unspecified),-6,101,93,99
CCOc1ccccc1NC(=O)c1c(NC(=O)c2cccc(C)c2)sc2c1CCC2,-48,95,90,105
O=C(Nc1cc(Oc2cccnc2)cc([N+](=O)[O-])c1)c1cc2nc(-c3cccs3)cc(C(F)(F)F)n2n1,-23,.,.,94
N#Cc1c(SCC(=O)c2ccc3c(c2)OCO3)sc2c(=O)[nH]c(=O)[nH]c12,.,71,80,109
CCOc1ccc(NC(=O)c2c(NCc3sccc3C)sc3c2CCCCC3)cc1,.,87,76,131
O=C(Nc1ccc(N2CCCCC2)cc1)c1cccs1,-4,88,66,106
CCOC(=O)c1c(NC(=O)c2ccc(S(=O)(=O)N3CCC(C)CC3)cc2)sc2c1CCN(C(C)C)C2,.,124,80,123

# Bioassay records: PubChem, ICCB-Longwood Screening Facility, Harvard Medical School

# Compounds as they come; 0.83% or so of the library scored in one or more.
